# Bioassay records as filed in PubChem BioAssay.
# gsp ag – qHTS for Agonist of gsp, the Etiologic Mutation Responsible for Fibrous Dysplasia/McCune-Albright Syndrome: qHTS. hit rate 0.13% among 340,000. gsp mutant cells, cAMP HTRF, 30 min; control for the full effect not named in the record. AID 624287, 2012. Potency, µM (series often up to 76.9 µM), for inactives: top-dose activation (cAMP increase), hits mostly activators; active = well fitted activation curve with a large enough effect; inconclusive = small, poorly fitted or top-dose-only effect, or another doubt; inactive = no such curve, though single readings can be large or run the other way; cell line not stated here;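 also: phosphodiesterase inhibitor Ro 20-1724 added with compounds to block cAMP breakdown; potency is read from the fitted curve at half-maximal effect; nearly all actives have a fitted effect of over 60% in size; about a fifth of the inactives were tested at one dose only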
#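 Cells stably selected in G418 were plated at 2000/well, grown 16-24 hr, then given compounds in DMSO with the PDE inhibitor […] (300 uM solution added) for 30 min at 37C; cAMP was read by HTRF.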
# TRPV1 potentiator – HTS Assay for Compounds that Act as Potentiators of the Vanilloid Receptor 1; TRPV1-expressing cells, Fluo-8 calcium influx, capsaicin EC20 potentiation; host cell line not named in the record; control for the full effect not named in the record; potentiation, % at 8.33 µM; Transient receptor potential cation channel subfamily V member 1 (Homo sapiens), Q8NER1; hit rate 0.02% among 320,000; active means potentiation above 80%; inconclusive means 30% to 80%; inactive means below 30%; also: 0% is about no effect
# Target sequence (Q8NER1 whole entry, looked up): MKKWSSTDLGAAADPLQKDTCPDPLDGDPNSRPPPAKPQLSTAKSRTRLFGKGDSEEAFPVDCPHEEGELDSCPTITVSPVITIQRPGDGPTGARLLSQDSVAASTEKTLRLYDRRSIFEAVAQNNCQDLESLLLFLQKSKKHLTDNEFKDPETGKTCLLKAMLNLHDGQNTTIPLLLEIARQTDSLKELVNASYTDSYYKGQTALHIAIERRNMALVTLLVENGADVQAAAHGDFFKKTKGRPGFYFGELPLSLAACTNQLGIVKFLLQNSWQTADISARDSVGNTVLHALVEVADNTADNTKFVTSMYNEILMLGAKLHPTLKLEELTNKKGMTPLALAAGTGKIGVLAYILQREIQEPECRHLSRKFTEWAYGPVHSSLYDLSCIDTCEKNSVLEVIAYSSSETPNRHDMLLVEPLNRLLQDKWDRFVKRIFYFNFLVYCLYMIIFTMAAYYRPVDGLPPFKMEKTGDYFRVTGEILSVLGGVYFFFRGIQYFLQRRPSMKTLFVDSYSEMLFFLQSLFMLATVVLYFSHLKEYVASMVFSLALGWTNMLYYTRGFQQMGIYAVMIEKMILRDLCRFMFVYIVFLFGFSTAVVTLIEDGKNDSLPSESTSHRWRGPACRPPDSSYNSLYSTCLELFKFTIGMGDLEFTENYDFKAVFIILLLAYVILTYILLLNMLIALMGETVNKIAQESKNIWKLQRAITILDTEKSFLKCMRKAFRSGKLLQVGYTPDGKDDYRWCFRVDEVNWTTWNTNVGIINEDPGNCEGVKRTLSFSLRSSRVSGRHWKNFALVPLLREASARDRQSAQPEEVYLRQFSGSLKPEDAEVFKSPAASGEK
#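 Cells expressing TRPV1 were dye-loaded with Fluo-8 and read kinetically: 10 s baseline, 3 min after compound (agonist portion), then 2 min after EC20 capsaicin (allosteric enhancer portion). Calcium-bound dye fluorescence at 480/520 nm.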
# ClpP mod – qHTS Assay for Activators of ClpP; ATP-dependent Clp protease proteolytic subunit (Bacillus subtilis (strain 168)), P80244; purified B. subtilis ClpP, FRET peptide cleavage, 20 min; Potency, µM (top dose mostly 57.5 µM), without a hit: at the highest dose activity change, negative = active; hit rate 1.9% among 340,000; AID 651965, 2013; active = well fitted falling curve with a large enough effect; inconclusive = small, poorly fitted or top-dose-only effect; inactive = no such curve, though single readings can be large or run the other way; also: potency is read from the fitted curve at half-maximal effect; the source files actives as falling curves though it sought activators and does not explain the sign; nearly all actives have a fitted effect of over 65% in size; many hits overshoot -100%
# Target sequence (P80244 whole entry, looked up): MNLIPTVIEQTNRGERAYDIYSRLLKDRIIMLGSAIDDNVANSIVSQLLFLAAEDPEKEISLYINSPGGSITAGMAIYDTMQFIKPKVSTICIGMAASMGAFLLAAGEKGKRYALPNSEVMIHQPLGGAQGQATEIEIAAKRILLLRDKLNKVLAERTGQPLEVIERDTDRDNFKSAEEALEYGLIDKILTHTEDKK
#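 FRET quenching reversal measured ClpP activation: 10 microg/mL B. subtilis ClpP at pH 8 with the FRET-FV decapeptide, read at 430 nm after 320 nm excitation. The 20-min minus 0-min signal was scaled between DMSO/no-enzyme wells and ADEP (5.8 microM final).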
# Menin-MLL FL inh – qHTS Assay for Inhibitors Targeting the Menin-MLL Interaction in MLL Related Leukemias: Competition With Fluorescein Labeled MLL-derived Peptide; Fluorescence polarization, fluorescein-MLL peptide displacement from menin; FP activity change, % at 61.4 µM; 290,000 tested, under 10 active; AID 1766, 2009; inconclusive = falling polarisation curve, or a change in total fluorescence; inactive = total fluorescence flat and polarisation flat or rising; no compound was filed as active; the % refers to the polarisation; negative = inhibition;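 also: % of control where 0% means no effect; inhibitors lower the polarisation; unlabelled MLL peptide was the positive control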
# gsp antag – qHTS for Antagonists of gsp, the Etiologic Mutation Responsible for Fibrous Dysplasia/McCune-Albright Syndrome: qHTS | gsp-mutant cells, cAMP HTRF, 30 min; control for the full effect not named in the record | Potency, µM (top dose mostly 76.9 µM), for inactives: top-dose activity change, negative = inhibition, hits mostly inhibitors | hit rate 0.4% among 340,000 | AID 624288, 2012; active = falling curve of any shape with a large fitted effect; inconclusive = falling curve, mostly with a smaller effect; inactive = flat or rising curve; cell line not stated here;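 also: intracellular cAMP measured with PDE inhibitor Ro 20-1724 present during compound exposure; potency is read from the fitted curve at half-maximal effect; % is scaled to controls: 0 for no effect and ±100 for the full control effect; nearly all actives have a fitted effect of over 65% in size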
#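 Cells in G418 medium, seeded 16-24 h, 37C; buffer exchange to DPBS + 1 mM CaCl2, 0.5 mM MgCl2, 0.05% BSA; cpds in DMSO + […] (300 uM stock), 30 min 37C; HTRF cAMP detection.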
# Sfp PPTase inh – qHTS Assay for Inhibitors of Bacillus subtilis Sfp phosphopantetheinyl transferase (PPTase); 4'-phosphopantetheinyl transferase ffp (Bacillus subtilis), Q9F4F7; Biochemical Sfp PPTase activity, qHTS; Potency, µM, for the others: max response, negative = inhibition, most hits filed as inhibitors; hit rate 3.5% among 310,000; AID 1490, 2009; active = well fitted inhibition curve with a large enough effect; inconclusive = small, poorly fitted or top-dose-only effect, or another doubt; inactive = no such curve, though single readings can be large or run the other way;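 also: the enzyme is Sfp with the accession as filed and its product quenches rhodamine fluorescence; potency is read from the fitted curve at half-maximal effect; 0% = enzyme reaction without inhibitor and -100% = no enzyme wells; top concentration of the series not given in the record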
#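 Step 1, compound plus 15 nM Sfp-PPTase, 15 min, room temperature. Step 2, add rhodamine-CoA (5 uM) and BHQ-2-YbbR (12.5 uM). Step 3, read 525/598 nm fluorescence at 0 and 30 min.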
# D2 PAM – Beta-Arrestin HTS for Positive Allosteric Modulators of the Human D2 Dopamine Receptor: Potentiators; DiscoveRx D2 beta-arrestin cells, luminescence, 90 min; 100% = 57 uM dopamine signal; potentiation, % (no concentration beside the values); hit rate 0.23% among 360,000; active = potentiation of 50% or more; inconclusive = 30% to 50%; inactive = 30% or less;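 also: compound concentration not given in the record; tested on top of an EC20 dose of dopamine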
#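 PathHunter beta-arrestin assay in DiscoveRx D2 cells. Compounds were added with an EC20 of dopamine (50 nM final) for 90 min at 37 deg C. Luminescence was read 1 h after detection reagent, with 57 uM dopamine as the EC100 control.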
# Starred values were filed as active, the others as inactive; ? = inconclusive; . = no result given; & = joins results of further samples; [ ] = dose if it differs, or a comment. The order is random. Share with any hit: about 5.1%.
smiles	ClpP mod	Sfp PPTase inh	TRPV1 potentiator	Menin-MLL FL inh	gsp antag	D2 PAM	gsp ag
CCCn1nc(C(=O)NNC(=O)c2ccc(C)c(C)c2)c2ccccc2c1=O	?	.	.	.	0%	-13	27%
COc1ccc(OCC(=O)Nc2c(C(=O)N3CCN(C)CC3)oc3ccccc23)cc1	0.7%	4%	-8	.	-2%	-15	19%
CC(=O)c1cccc(NC(=O)C(C)OC(=O)CCN=C2NS(=O)(=O)c3ccccc32)c1 (stereo not given)	0.5%	.	12	.	2%	-35	-27%
O=C(N/N=C/c1ccc([N+](=O)[O-])cc1)c1ccc2nc[nH]c2c1	0.2%	-8%	1	-0.5	2%	11	28%
Cc1nonc1N1CCN(Cc2cn[nH]c2-c2ccc(F)cc2F)CC1	.	4%	2	-3.4	2%	-8	15%
COc1ccc(C2(C(=O)NCC3CCCO3)CCOCC2)cc1 (stereo not given)	-1.6%	13%	-2	-1.9	12%	-12	0%
Cc1ccc(S(=O)(=O)N2CCN(Cc3cccnc3)CC2)cc1	-1.3%	12%	-6	.	7%	-10	-24%
COc1ccc(NC2=C(C(C)=O)C(c3ccc(OC)cc3)C(C(C)=O)C(C)(O)C2)cc1 (stereo not given)	.	7%	-15	-2.8	-11%	-4	1%[15.4 µM]
COc1cc(CNc2ccc(CNc3ncn[nH]3)cc2)ccc1OCC(=O)NC(C)(C)C	-1.3%	7%	12	.	1%	-11	14%
COC(=O)C1SCC2C(=O)N(Cc3ccc(F)cc3)CC(=O)N21 (stereo not given)	2.2%	11%	?	2.9	-11%	-5	15%
C=CCc1cccc2cc(C(=O)N3CCOCC3)c(=O)oc12	-19%	11%	-15	20	7%	-4	-33%[inhibitor]
O=C(NC(NNc1ccc([N+](=O)[O-])cc1)(C(F)(F)F)C(F)(F)F)c1ccc(Cl)cc1	0.1%	-10%	?	0.6	?	17	-27%
CCCCCCC(=O)NCC(=O)OCC(=O)c1ccccc1	-1.6%	10%	-4	2.1	-10%	8	2%
CC(=O)N1c2c(cc(Br)cc2S(=O)(=O)NCC2COc3ccccc3O2)CC1C (stereo not given)	-0.7%	6%	10	3.5	?	-22	-2%
C=CCN(c1nc(C)cc(OC)n1)S(=O)(=O)c1ccccc1	0.2%	-19%	-26	0.6	-3%	-21	-5%
CCNC(=O)COn1c(SCC(=O)NCC)nc2ccccc2c1=O	-3.8%	-5%	.	-0.6	-1%	-7	-13%
Cn1c2ccccc2c(=O)c2c(=O)n(Cc3ccco3)c(-c3ccc(F)cc3)nc21	.	?	7	4.0	-13%	-7	-1%[15.4 µM]
O=C(COC(=O)c1ccccc1SCC(=O)N1CCCC1)NCc1ccccc1	-9.3%	.	-3	.	-6%	11	-6%
CC(NC(=O)CN1CCN(c2ccccc2F)CC1)c1ccccc1 (stereo not given)	.	20%	-11	2.5	10%	-23	?
CSCCC(N=C1NS(=O)(=O)c2ccccc21)C(=O)NCCc1ccccc1 (stereo not given)	-4.8%	3%	14	.	3%	-27	-58%[inhibitor]
N#CC1(NC(=O)COC(=O)CNC(=O)c2sc3ccccc3c2Cl)CCCCC1	-1.4%	.	-6	.	-4%	-2	?
O=C(c1ccc2nc(-c3ccco3)c(-c3ccco3)nc2c1)N1CCN(c2ncccn2)CC1	-2.7%	14µM*	?	4.1	-8%	?	9%
N/C(=N\N=C\c1ccc2c(c1)OCO2)c1nonc1N	1.7%	-4%	1	2.3	-1%	-4	16%
C(C#CCCCCCCCCC[n+]1ccccc1)#CCCCCCCCCC[n+]1ccccc1	.	50µM*	15	-7.2	11%&5%	-16&-9	2%
FC(F)(F)c1cc(C(F)(F)F)c2ccc(N3CCN(c4ccc(Cl)cc4)CC3)nc2n1	1.6%	22%	10	1.7	10%	-13	14%
Cc1csc(N=Cc2ccc([N+](=O)[O-])o2)n1	0.5%	.	.	.	.	6	-9%
Cc1nc2ncnn2c(C)c1CCC(=O)NCCC1=CCCCC1	-1.8%	-5%	23	-0.9	6%	-24	?
Cc1ccccc1C1=NC(C(F)(F)F)(C(F)(F)F)c2c(n(C)c(=O)n(C)c2=O)N1	33%	27%	14	-0.7	21%	-4	-11%
COc1ccc(-c2csc(NC(=O)COc3ccc(N(C)S(=O)(=O)c4ccc(C)cc4)cc3)n2)cc1	-2.3%	-6%	-2	2.5	6%	16	20%
Cc1c(NC(=O)/C(C#N)=C/c2ccc(-c3ccc(Cl)c(Cl)c3)o2)c(=O)n(-c2ccccc2)n1C	-0.4%	21%	-1	1.7	?	-5	-4%[15.4 µM]

smiles	ClpP mod	Sfp PPTase inh	TRPV1 potentiator	Menin-MLL FL inh	gsp antag	D2 PAM	gsp ag
CC(NC(=O)CNC(=O)c1cccc(Cl)c1)c1ccccc1 (stereo not given)	-2.1%	0%	4	0.5	4%	-4	-5%
CC(NCC(=O)Nc1ccccc1C(=O)NC1CC1)c1ccco1 (stereo not given)	.	.	0	.	0%	-7	-17%[15.4 µM]
COc1ccccc1NS(=O)(=O)c1ccc2oc(SCC(=O)N3CCNC3=O)nc2c1	-0.5%	.	9	.	-9%	3	7%
C=CCN(CC=C)C(=S)Nc1ccccc1	-1.9%	-12%	13	-0.1	7%	-10	-53%[inhibitor]
CC(C)c1nc(-c2c(N)n(C)c(=O)n(C)c2=O)sc1C(=O)C(C)(C)C	-8.6%	9%	-7	1.5	12%	3	-3%
Cc1cc(-c2ccc(C)c(S(=O)(=O)NCC3CCN(Cc4ccc(F)cc4)CC3)c2)on1	-1.5%&-2.8%	12%	-7	-0.8	-2%	-38	-92%[inhibitor]
CC1CC(C)CN(S(=O)(=O)c2ccc(NC(=O)CCN3C(=O)C4CC=CCC4C3=O)cc2)C1 (stereo not given)	-1.1%	.	-37	.	-7%	0	?
CCc1nc(SCC(=O)NCc2ccco2)c2c(=O)n(C)c(=O)n(C)c2n1	-1.6%	?	-19	-1.7	1%	-7	3%
COc1ccccc1NS(=O)(=O)c1ccc(C)c(C(=O)N2CCN(c3ccc(O)cc3)CC2)c1	2.8%	.	.	.	-17%	2	-11%
CCC(C)n1c(/C=C/c2ccccc2)nc2ccccc21 (stereo not given)	3.3%	7%	-3	-1.5	-14%	-4	15%
CCc1ccc(C(=O)N2CCN(S(=O)(=O)c3sc(C(=O)O)c(C)c3C(=O)O)CC2)cc1	1.3%	.	?	.	9%	-3	2%
CCN(CC(=O)Nc1c(F)cccc1F)C(=O)C1CCN(c2ncnc3sc(C)c(C)c23)CC1	1.3%	.	-6	.	?	7	-5%
O=C(NCc1ccccc1Cl)c1cc([N+](=O)[O-])ccc1Cl	-1.4%	-3%	-9	2.8	-8%	-1	-2%
Cc1ccc(CN(C)C(=O)CCc2c[nH]c3ccccc23)o1	.	5%	-8	1.0	-12%	-3	-2%[15.4 µM]
O=C(Nc1c(C(=O)N2CCC(N3CCCCC3)CC2)oc2ccccc12)c1c(F)cccc1F	0.3%&-4.4%	11%	0	2.0	9%	-18	14%
COC(=O)c1ccc(CN2CCC(CO)(Cc3ccc(OC)cc3)CC2)cc1	.	5%	2	0.7	6%	-23	-1%[15.4 µM]
CCOC(=O)c1nn(-c2ccccc2)c(=O)cc1SC1CCCCC1	.	6%	-11	-3.5	.	-17	0%[15.4 µM]
O=C(Nc1ccc(Cl)cc1)c1csc(-c2ccccc2)n1	-2.3%	?	-25	-2.5	-22%	-17	0%
O=C(OC1CCCCC1)c1ccc(NC(=O)C2CCCCC2)cc1	-1.7%	20%	-7	0.6	-10%	-5	7%
N#C/C(=C/c1cccn1-c1cccc(C(=O)O)c1)c1ccc(F)cc1	1.0%	19%	?	2.1	-18%	2	?
COc1ccc(OC)c(S(=O)(=O)NCc2cn3c(C)csc3n2)c1	-5.5%	3%	-6	-2.7	5%	-13	11%
Cc1ccc(C(=O)Nc2ccccc2N2CCCCC2)cc1[N+](=O)[O-]	-1.7%	-1%	1	-0.3	-11%	-8	-77%[inhibitor]
COCCn1c(SCC(=O)Nc2ccc(OC)cc2)nc2c(oc3ccccc32)c1=O	.	16%	-3	-2.6	.	.	.
COc1ccccc1NC(=O)c1ccccc1NS(=O)(=O)N1CCCC1	-9.0%	0%	8	-0.4	?	-8	-26%
NC(=O)c1ccc(-c2c(-c3ccccc3)sc3ccccc23)cc1	-15%	.	6	.	-4%	-7	.
CC1CC(CN)CC(CO)C1 (stereo not given)	-9.0%	-3%	-2	-1.9	-5%	-10	5%[15.4 µM]

# Some values from the list:
# Sfp PPTase inh with `CCC(C)n1c(/C=C/c2ccccc2)nc2ccccc21` (stereo not given) = 7%
# ClpP mod with `CC(C)c1nc(-c2c(N)n(C)c(=O)n(C)c2=O)sc1C(=O)C(C)(C)C` = -8.6%
# Menin-MLL FL inh with `CC(NC(=O)CNC(=O)c1cccc(Cl)c1)c1ccccc1` (stereo not given) = 0.5

# 2 of the compounds above, with two lines to a compound.
# Value order – ClpP mod	Sfp PPTase inh	TRPV1 potentiator	Menin-MLL FL inh	gsp antag	D2 PAM	gsp ag
O=C(Nc1c(C(=O)N2CCC(N3CCCCC3)CC2)oc2ccccc12)c1c(F)cccc1F
    0.3%&-4.4%	11%	0	2.0	9%	-18	14%
O=C(Nc1ccc(Cl)cc1)c1csc(-c2ccccc2)n1
    -2.3%	?	-25	-2.5	-22%	-17	0%
